Screening data deposited in PubChem by Johns Hopkins Ion Channel Center.
KCNQ2 pot: enhances the rat KCNQ2 potassium channel; O88943; CHO-K1 KCNQ2, FluxOR thallium flux fluorescence; active compounds read high; B-score at 10 µM; actives 0.54% (n = 310,000);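 active means fluorescence ratio B-score at least 3 SD of library B-scores, with initial fluorescence B-score within 3 SD, cut at about 5.3 in these data; same plate scores as AID 2156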;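 further: B-score of peak minus minimum over baseline fluorescence ratio after K+ and Tl+ stimulus; positive B-score means potentiation of KCNQ2 with more thallium influx and brighter signal; only the inactives scoring about 0 or higher are listed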
Target sequence (O88943 whole entry, looked up): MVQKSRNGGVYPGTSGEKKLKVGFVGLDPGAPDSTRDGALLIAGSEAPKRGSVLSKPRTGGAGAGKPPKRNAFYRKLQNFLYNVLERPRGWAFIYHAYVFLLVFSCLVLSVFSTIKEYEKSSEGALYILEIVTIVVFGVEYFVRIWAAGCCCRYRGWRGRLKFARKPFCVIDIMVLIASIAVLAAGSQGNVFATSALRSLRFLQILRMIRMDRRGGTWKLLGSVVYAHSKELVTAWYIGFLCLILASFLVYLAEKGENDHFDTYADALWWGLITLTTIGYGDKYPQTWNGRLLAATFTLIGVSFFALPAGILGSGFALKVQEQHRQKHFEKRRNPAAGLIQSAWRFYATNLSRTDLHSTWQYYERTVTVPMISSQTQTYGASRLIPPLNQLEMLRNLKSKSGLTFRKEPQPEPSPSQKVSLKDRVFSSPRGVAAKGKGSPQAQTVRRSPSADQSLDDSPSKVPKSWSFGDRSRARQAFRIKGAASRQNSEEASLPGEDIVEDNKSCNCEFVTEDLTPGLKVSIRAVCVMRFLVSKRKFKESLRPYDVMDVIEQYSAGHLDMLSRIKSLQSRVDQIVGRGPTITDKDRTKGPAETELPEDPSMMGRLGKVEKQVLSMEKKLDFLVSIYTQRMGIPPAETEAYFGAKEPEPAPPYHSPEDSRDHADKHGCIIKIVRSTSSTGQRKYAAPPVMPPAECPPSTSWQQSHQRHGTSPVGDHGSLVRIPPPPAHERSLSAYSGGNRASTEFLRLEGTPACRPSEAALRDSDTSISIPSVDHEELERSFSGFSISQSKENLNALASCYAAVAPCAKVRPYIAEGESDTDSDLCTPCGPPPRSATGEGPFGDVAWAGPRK
KCNQ2 pot baseline: recorded beside KCNQ2 pot, whose call it bears; B-score; compound at 10 µM; measured here: initial fluorescence intensity artifact check;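 brightness before thallium and not channel activity; 0 = typical well and far values either way flag optical interference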
Numbers without * were called inactive; & = joins results of further samples. Not all compounds are listed, so the mix of outcomes need not match the whole.

The first 6 entries as a preview:
KCNQ2 pot,KCNQ2 pot baseline,Structure
0.13,-0.43,O=C1CC(NCc2ccco2)C(=O)N1CCc1ccccc1 (stereo unspecified)
0.54,-0.01,O=Cc1c(N2CCSCC2)nc2ccccn2c1=O
1.5,-1,CN(C)S(=O)(=O)c1ccc(N2CCCC2=O)c([N+](=O)[O-])c1
2.3,-0.74,O=C(Cc1ccccc1)Nc1ccc(NC(=O)c2ccccc2)nc1
0.37,1.3,CCOc1ccc(S(=O)(=O)N2CCCCC2)cc1NC(=O)CN1C(=O)NC(C)(c2ccccc2)C1=O (stereo unspecified)
0.07,-0.66,Cc1cc(C)c(NC(=O)CNC(=O)COC(=O)Cc2cccs2)c(C)c1

Results, repeating the preview:
KCNQ2 pot,KCNQ2 pot baseline,Structure
0.13,-0.43,O=C1CC(NCc2ccco2)C(=O)N1CCc1ccccc1 (stereo unspecified)
0.54,-0.01,O=Cc1c(N2CCSCC2)nc2ccccn2c1=O
1.5,-1,CN(C)S(=O)(=O)c1ccc(N2CCCC2=O)c([N+](=O)[O-])c1
2.3,-0.74,O=C(Cc1ccccc1)Nc1ccc(NC(=O)c2ccccc2)nc1
0.37,1.3,CCOc1ccc(S(=O)(=O)N2CCCCC2)cc1NC(=O)CN1C(=O)NC(C)(c2ccccc2)C1=O (stereo unspecified)
0.07,-0.66,Cc1cc(C)c(NC(=O)CNC(=O)COC(=O)Cc2cccs2)c(C)c1
1.3,0.93,COCCNC(=O)c1cc(-c2ccc3c(c2)OCO3)on1
0.6,-0.96,O=C(CSc1nc2ccccc2c(=O)n1-c1ccc(OC(F)F)cc1)NCc1cccs1
0.41,0,COc1ccc(C)cc1NS(=O)(=O)c1ccc2c(c1)n(C)c(=O)n2C
2,-0.58,COC(=O)c1ccccc1NC(=O)c1ccc(-c2cccc(Cl)c2)o1

An excerpt from above in order of heavy-atom count, falling.
KCNQ2 pot,KCNQ2 pot baseline,Structure
0.6,-0.96,O=C(CSc1nc2ccccc2c(=O)n1-c1ccc(OC(F)F)cc1)NCc1cccs1
0.41,0,COc1ccc(C)cc1NS(=O)(=O)c1ccc2c(c1)n(C)c(=O)n2C
0.54,-0.01,O=Cc1c(N2CCSCC2)nc2ccccn2c1=O

Following part:
KCNQ2 pot,KCNQ2 pot baseline,Structure
0.19,0.47,CC(=O)c1cccc(NC(=O)c2sc3nc4n(c(=O)c3c2C)CCCCC4)c1
2.2,-1.8,COc1ccccc1NC(=O)CSc1nc2sc(C)c(C)c2c(=O)n1C
0.61,-1.3,Cc1ccc(-c2c3c(=O)n(C)c(=O)n(C)c3cn2-n2cnnc2)cc1
0.15,-2.2,CC(=O)OCC(=O)NCCCOc1cccc(CN2CCCCC2)c1
1.2,-0.49,CCOc1ccc2nc(NC(=O)CSc3nc4c(c(=O)n(C)c(=O)n4C)n3CC)sc2c1
1.1,0.74,O=C(Nc1ccc(Cl)cc1)Nc1ccc(S(=O)(=O)Nc2ncccn2)cc1
0.15,1.3,Cc1nnc(N)nc1C
0.59,-0.73,Cc1cc(C)n(C(=O)CNC(=O)c2ccc(C(C)(C)C)cc2)n1
1,-0.8,COc1ccc(-c2csc(N3CCOCC3)n2)cc1OC
2.8,-0.28,CCOC(=O)N1CCN(C(=O)COc2ccc3oc4c(c3c2)CCCC4)CC1
0.32,-0.98,Cn1ccc(C(=O)N/N=C/c2cccnc2)n1
0.19,1.5,C=CCN1/C(=C2/SC(=S)N(C)C2=O)Sc2ccccc21
1.7,-0.31,CCN(CC)CCN1C(=O)C(O)=C(C(=O)c2cc3ccccc3o2)C1c1cccnc1 (stereo unspecified)
1.7,0.07,COC(=O)c1ccc(Cn2c(O)c(N=NC(N)=S)c3ccccc32)o1
1.8,0.68,O=C(Nc1nc(-c2cccnc2)cs1)c1ccccc1F
1.1,-1.6,COC(=O)C1=C(C(=O)OC)[C@@H]2N(C)c3ccccc3[C@@]23C[C@@H](C(=O)OC)N(C(=O)c2cc(C)oc2C)C3=N1
2.1,-0.07,COc1cccc(N2CCN(C(=O)Nc3ccccc3Cl)CC2)c1
2.6,0.21,CC1CC(C)CN(S(=O)(=O)N2CCCC(C(=O)NC(C)c3ccccc3)C2)C1 (stereo unspecified)
0.02,1.1,O=C(O)/C=C/C(=O)Nc1ccc(Oc2ccccc2)cc1
0.06,1.5,COC(=O)CSc1nc2cc(OC)ccc2cc1C#N
0.99,0.12,CCCSc1nnc(NC(=O)Cc2ccc(OC)c(OC)c2)s1
0.92,0.28,CC(C)(C)NC(=O)c1c(F)c(F)c(F)c(F)c1F
0.23,-2,CCN(CC)c1ccc(C(=O)NNC(=O)CCl)cc1
1.6,-0.02,Cc1ccc(S(=O)(=O)NN2C(=O)c3ccccc3NC2c2ccccc2F)cc1 (stereo unspecified)
0.94,-0.21,Cc1nnc(N(Cc2ccco2)C(=O)c2ccc(C#N)cc2)s1
1.5,2.2,COc1cc(NC(=O)c2cc3ccccc3o2)ccc1NC(=O)c1ccco1
0.56,1.3,Cc1ccc(CSc2nnc(-c3cnccn3)n2C)cc1
0.12,-0.21,Cc1ccc(C(=O)Nc2nc(COc3ccccc3)cs2)s1
0.18,-1.4,COc1ccc(C(=O)N/N=C(/C)c2cccc(NC(=O)c3ccccc3F)c2)cc1
0.87,-0.88,CCC(CC)NC(=O)COC(=O)CCC(=O)c1cccs1
0.6,1.4,CC1CC(C)CN(S(=O)(=O)CCNC(=O)c2ccc3c(c2)OCO3)C1 (stereo unspecified)
0.31,0.62,O=C(NC1CCCC1)C(=O)N(c1ccccc1F)C(C(=O)NCC1CCCO1)c1cccs1 (stereo unspecified)
0.01,-0.49,CCCOc1cccc(NC(=O)c2c(-c3ccccc3)noc2C)c1
0.36,-0.1,COc1ccccc1-n1cc2c([N+](=O)[O-])cc([N+](=O)[O-])cc2n1
0.88,-0.95,COc1cc2[nH]c(-c3ccc(C)cc3)cc(=O)c2cc1OC
1,-0.02,CC1(C)CC(=O)C(C(C2=C(O)CC(C)(C)CC2=O)c2ccc([N+](=O)[O-])cc2)C(=O)C1 (stereo unspecified)
1.2,-0.85,O=C1/C(=C/c2cccc([N+](=O)[O-])c2)Oc2cc(O)ccc21
2.2,-0.07,CC(=O)NCCC(=O)Nc1nc(-c2c[nH]c3ccccc23)cs1
0.16,0.02,COc1ccc(C(=O)NC(=S)Nc2cc3oc4ccccc4c3cc2OC)cc1
0.71,0.4,COc1ccc(C2/C=C\CN(S(=O)(=O)c3ccc4ccccc4c3)CC(=O)N2Cc2ccc(F)cc2)cc1 (stereo unspecified)
0.01,0.36,CSc1nnc(-c2ccncc2)n1/N=C/c1cn(-c2ccccc2)nc1-c1ccc(Cl)cc1
1.8,0.43,CC(C)COc1ccc(Cc2cnc(N)nc2N)cc1
0.98,1.1,Cc1oc(-c2ccccc2F)nc1CS(=O)(=O)CC(=O)NCCN(C)C1CCCCC1
0.24,0.27,C/C(=N\NC(=O)c1cc(C)oc1C)c1ccc(N2CCOCC2)cc1
1.5,1.1,COc1ccc(NS(=O)(=O)c2ccc(F)cc2F)cn1
1.9,0.08,COc1ccc(C)cc1S(=O)(=O)N1CCCC(C(=O)NCc2ccccn2)C1 (stereo unspecified)
4.1,0.34,Cc1cccc(/C(N)=N/OC(=O)c2ccoc2C)c1
1.1,0.67,COc1ccc(Cl)cc1S(=O)(=O)N1CCN=C1C
0.19,0.07,CC(=O)c1cccc(NC(=O)CCNS(=O)(=O)c2cccc3nsnc23)c1
0.87,-0.24,COc1ccc(-c2nn(C)c3sc(C(=O)N4CCOCC4)cc23)cc1OC

The list goes on.
KCNQ2 pot,KCNQ2 pot baseline,Structure
0.56,0.64,CC(=O)N1CCN(C(=O)c2cccc(S(=O)(=O)Nc3ccc(C)cc3)c2)CC1
0.11,0.74,CCN(CC)CCCN1C(=O)C(O)=C(C(C)=O)C1c1cccc(OC)c1 (stereo unspecified)
0.38,0.33,CC(=O)c1cccc(NC(=O)CN(C)S(=O)(=O)c2ccc3c(c2)CCC(=O)N3)c1
0.52,-0.28,CNc1nc(N)c([N+](=O)[O-])c(Nc2cccc(Cl)c2)n1
0.94,-0.23,CCOC(=O)C1CCCN(c2cc(=O)n(Cc3ccc(F)cc3)c(=O)[nH]2)C1 (stereo unspecified)
1.6,-0.21,CC(C#N)Sc1nnc(Nc2ccccc2)s1 (stereo unspecified)
0.01,0.44,CC(C)CC(=O)NN(C)c1nc(-c2ccccc2)nnc1C(F)(F)F
0.88,1.2,O=C(O)c1occc1CSc1ccccc1
0.4,0.29,COc1cc(CN(C)Cc2ccccc2)cc(OC)c1O
0.23,0.38,COc1ccc(S(=O)(=O)N2CCC(C(=O)N[C@@H](C)C(=O)NCc3ccccc3OC)CC2)cc1
1.2,-1,N#CCCN(Cc1cccnc1)S(=O)(=O)c1ccc(S(=O)(=O)NC2CCCCC2)cc1
0.41,-0.73,COc1ccc(Oc2ncccc2NC(=O)c2cccc(C)c2C)cc1
0.34,1.4,CC(=O)Oc1ccc(C(=O)NC(C)CCc2ccccc2)cc1 (stereo unspecified)
0.02,1.5,O=C(NCC(=O)N1CCC2(CC1)NCCc1[nH]cnc12)c1ccc(F)cc1
1.1,0.57,COc1ccc(OCC(=O)N/N=C(\C)c2ccc(OC)cc2)cc1
1.6,0.42,C/C(=N\NC(=O)C1CC1)c1ccc(NC(=O)c2ccc(Br)o2)cc1
0.27,1.8,C/C(=N/NC(=O)c1ccc(-c2ccccc2)cc1)c1cccc(O)c1
1.3,1.2,CC(C)(C)NC(=O)NC(=O)CSc1ncn[nH]1
0.31,0.02,COC(=O)CSc1nc2nc(C)cc(C)n2n1
0.72,-0.69,CC(=O)NC12CC3CC(C1)CC(C(=O)N1CCN(S(=O)(=O)c4ccc(C(C)C)cc4)CC1)(C3)C2

By substructure, those above with a tert-butyl group
KCNQ2 pot,KCNQ2 pot baseline,Structure
0.59,-0.73,Cc1cc(C)n(C(=O)CNC(=O)c2ccc(C(C)(C)C)cc2)n1
0.92,0.28,CC(C)(C)NC(=O)c1c(F)c(F)c(F)c(F)c1F
1.3,1.2,CC(C)(C)NC(=O)NC(=O)CSc1ncn[nH]1

(cont.)
KCNQ2 pot,KCNQ2 pot baseline,Structure
0.36,1.5,O=C(Cn1nc(-c2cccc(Cl)c2)ccc1=O)Nc1ccccc1Br
0.93,2,C/C(CCC1CC(C)(C)OC1=O)=N\NC(N)=S (stereo unspecified)
0.19,2,CCONC(=NC)c1nonc1N
1.3,-0.55,CCOC(=O)C1CCCN(CCC(=O)Nc2ccc(Br)cc2)C1 (stereo unspecified)
1.1&0.8,0.6&-0.56,COc1cc2c(C#N)c(N3CCCC3)nc(N)c2c(N)n1
0.82,-1.8,O=C(CCCCCn1c(=O)[nH]c2ccsc2c1=O)NCc1ccc2c(c1)OCO2
0.21,-0.89,COc1ccc(CC(=O)Nc2ccc3c(c2)CCC3)cc1OC
2,0.94,CC(=O)Nc1ccc(NC(=O)c2cc(-c3cc(C)cc(C)c3O)n[nH]2)cc1
0.09,0.21,C=CCn1c(=NC(=O)c2cccc(N3C(=O)CCC3=O)c2)sc2cccc(OC)c21
0.85,-0.67,Cc1cc(NC(=O)CSCc2nc(-c3cccc(Cl)c3)oc2C)no1
0.05,1,COc1ccc(Cl)cc1NC(=O)c1cc(-c2ccco2)on1
0.21,1.2,COc1ccc(CCN2CC(C(=O)NC3CCCCC3)CC2=O)cc1OC (stereo unspecified)
0.56,-0.06,Cc1cc(=O)[nH]c(N/N=C/c2cccc([N+](=O)[O-])c2)n1
0.14,-0.27,CN(C)C(CNC(=O)c1cccnc1Sc1ccccc1)c1ccco1 (stereo unspecified)
0.12,-2.2,CCC(C)NC(=O)Cn1c(=O)n(CCCCC(=O)NCc2ccco2)c(=O)c2ccccc21 (stereo unspecified)
1.3,0,CCOC(=O)Cn1c(=O)oc2cc(S(=O)(=O)NCCc3ccc(C)cc3)ccc21
0.13,0.32,CCCCn1c(N)c(N(CC(C)C)C(=O)CSc2ccccc2C)c(=O)[nH]c1=O
1.1,-2.1,CCc1nnc(NC(=O)c2ccc(S(=O)(=O)N(CC)CC)cc2)s1
1.8,-1.6,Cc1ccc(/C=N/NC(=O)c2cc(C)oc2C)o1
1.4,-2.4,COc1ccc(/C=N/NC(=O)CN(C)S(=O)(=O)c2ccc(NC(C)=O)cc2)cc1
1.1,0.07,O=C(NCCc1ccccc1)C1CCC(Cn2c(=O)c3ccccc3n(Cc3cccnc3)c2=O)CC1 (stereo unspecified)
0.16,0.99,Cc1noc(NS(=O)(=O)c2ccc(NC(=O)CSc3nc4ccccc4s3)cc2)c1C
0.03,-1.6,Cc1cc(C)cc(NC(=O)COc2coc(CN3CCN(c4ccccc4)CC3)cc2=O)c1
0.28,-1.5,CCN(CC(=O)Nc1ccc(OC)cc1)C(=O)c1cc(S(=O)(=O)N(C)C)ccc1N1CCCC1
0.97,-0.59,COc1ccc(OCC(=O)NCc2n[nH]c(=O)c3ccccc23)cc1
0.03,0.61,COc1cccc(CNC(=O)c2ccc(NC(=O)C3CCCO3)cc2)c1 (stereo unspecified)
1,0.09,N#Cc1ccc(CO/N=C/c2ccccc2)cc1
0.9,-0.75,CCOC(=O)CCn1cc(F)c(=O)[nH]c1=O
1.7,0.6,Cc1ccc(N(C(=O)c2csnn2)C(C(=O)NC(C)(C)C)c2cccnc2)cc1C (stereo unspecified)
0.07,-1.6,O=C(O)c1cccc(OCc2ccccc2Cl)c1
1.1,-0.77,Cc1ccccc1-n1c(SCC(=O)c2cc(C)n(C)c2C)nnc1-c1ccncc1
0.09,0.66,COC(=O)COc1ccc(C)cc1-n1nc2ccccc2n1
2.7,0.83,O=C(Nc1ncc(Cc2ccccc2)s1)C1CCCO1 (stereo unspecified)
0.04,0.64,COc1cccc(NC(=O)C2CCC(CNC(=O)[C@@H]3Cc4ccccc4CN3)CC2)c1 (stereo partly specified)
2.3,-0.46,N#Cc1ccc(NC(=O)COC(=O)CSc2nnc(-c3ccc(Cl)cc3)o2)cc1
0.16,0.02,COc1ccc(/C(N)=N/OC(=O)c2ccc(OC)c([N+](=O)[O-])c2)cc1OC
